# CFTR F508del – compounds raising F508del-CFTR protein level – cell-based, HeLa F508del-CFTR, immunofluorescence, viability, primary screen (AID 1224863); calls, or highest fold increase where a dose series was run; 10,000 compounds, 0.1% hits; HeLa F508del-CFTR, immunofluorescence total CFTR, 24 h; by the record results were divided by relative cell number; some inactives read as strong as hits; in the data nearly all actives have a first-pass fold increase above 1.5; a few of its hits are not listed in these tables;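 further: total CFTR protein by anti-CFTR immunofluorescence in fixed cells; first pass at 25 µM or 10 µg/mL by library and series up to twice that; 1 = untreated cells; first-pass hits also needed half or more of the cells alive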
# CFTR F508del fold 25 µM – also measured in CFTR F508del; calls as there; fold increase; measured here: primary screen single dose 25 uM; library dosed in µM
# CFTR F508del fold 10 ug/mL – further read-out of CFTR F508del, marked with its call; fold increase; measured here: primary screen 10 ug/mL
# CFTR F508del viability 25 µM – second read-out of CFTR F508del, no call of its own (marks repeat the call); viability, %; measured here: primary viability 25 uM; library dosed in µM;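 0% = killed and 100% = untreated cells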
# CFTR F508del viability 10 ug/mL – second read-out of CFTR F508del, no call of its own (marks repeat the call); viability, %; measured here: primary viability 10 ug/mL;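 0% = killed and 100% = untreated cells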
# Numbers without * were called inactive; i = inactive; nt = not tested or not shown; + = active, no number; & = joins results of further samples; ! = not confirmed by another sample. This is a subset. The share of hits here may be higher or lower than overall.
SMILES,CFTR F508del,CFTR F508del fold 10 ug/mL,CFTR F508del viability 10 ug/mL,others
CCOc1ccc(Br)cc1S(=O)(=O)Nc1ccc(N2CCCS2(=O)=O)cc1,i,0.88,90,
C[N+]1(C)CCCC(OC(=O)C(O)(c2ccccc2)c2ccccc2)C1 (centres undefined),i,nt,nt,CFTR F508del fold 25 µM=0.99;CFTR F508del viability 25 µM=95
O=C(O)CCCCc1ccc(Br)cc1,i,1.1,106,
CN(Cc1cnn(-c2ccccc2)c1)Cn1cnc(-c2ccc([N+](=O)[O-])cc2)n1,i,1,104,
C=CCn1c(SCc2cc(-c3ccco3)on2)nnc1-c1ccccc1,i,0.97,79,
C=CCn1c(SCc2cc(F)cc3c2OCOC3)nc2ccsc2c1=O,i,0.98,87,
CN(CCOc1ccc(F)cc1)c1ccc2nnc(C(F)(F)F)n2n1,i,0.95,80,
FC(F)(F)c1ccc(NCCCNc2ccc3nnnn3n2)nc1,i,1.1,82,
Cc1nn(-c2ccccc2)c(Nc2ccc(Cl)cc2)c1Br,i,1,92,
O=C(CSc1ccccc1Br)c1ccc2c(c1)OCO2,i,1.1,95,
COC(=O)COC(=O)c1c(NC(C)=O)sc(C)c1C,i,1.1,85,
C=CCn1c(SCC(=O)NC(=O)c2ccco2)nc2ccsc2c1=O,i,1,109,
O=S(=O)(Nc1ccc(-c2cn3cccnc3n2)cc1)c1ccc2c(c1)OCCO2,+,3.9*,79*,
CNCc1ccoc1C,i,0.99,75,
COc1ccc2nc3cc(Cl)ccc3c(Nc3cc(CN4CCCC4)c(O)c(CN4CCCC4)c3)c2n1,i,nt,nt,CFTR F508del fold 25 µM=0.72;CFTR F508del viability 25 µM=50
COc1ccc(C2C(C(=O)c3ccco3)=C(O)C(=O)N2CCCN(C)C)c(OC)c1 (centres undefined),i,1.1,98,
Nc1nc(CNc2nc(CN3CCCCCC3)nc(Nc3ccc(F)cc3)n2)nc(Nc2ccc(F)cc2)n1,i,0.92,93,
COCCOC(=O)C1=C(C)NC(C)=C(C(=O)OC/C=C/c2ccccc2)C1c1cccc([N+](=O)[O-])c1 (centres undefined),i,nt,nt,CFTR F508del fold 25 µM=0.78&0.71;CFTR F508del viability 25 µM=81&73
Cn1cc(S(=O)(=O)N2CCCCCC2)cc1C(N)=O,i,1.2,101,
COCCn1c(SCC(=O)c2[nH]c(C)c(C(C)=O)c2C)nc2sc3c(c2c1=O)CCCC3,i,1,102,
Cc1cc(C)c(C)c(S(=O)(=O)Nc2ccc3c(c2)CCO3)c1C,i,0.94,64,
CC(=O)O[C@H]1C(=O)[C@@]2(C)C([C@H](OC(=O)c3ccccc3)[C@]3(O)C[C@H](OC(=O)[C@H](O)[C@@H](NC(=O)c4ccccc4)c4ccccc4)C(C)=C1C3(C)C)[C@]1(OC(C)=O)CO[C@@H]1C[C@@H]2O (some centres undefined),i,nt,nt,CFTR F508del fold 25 µM=0.7&0.96;CFTR F508del viability 25 µM=77&85
Cc1c(C(=O)O)sc2ccc(F)cc12,i,1,104,
O=C(NCCC1=CCCCC1)C1CCCN(C(=O)N2CCCC2)C1 (centres undefined),i,0.97,94,
CC(C)c1nn(CN2CCN(C3CCS(=O)(=O)C3)CC2)c(=S)n1C1CC1 (centres undefined),i,1,103,
CC(CNS(=O)(=O)c1ccc(S(=O)(=O)N2CCCCC2)cc1)Cn1cccn1 (centres undefined),i,0.91,88,
Cc1noc(CN2CCN(S(=O)(=O)c3ccc(F)c(Cl)c3)CC2)n1,i,1.1,102,
CC(C)Cn1cnc2c(N)nc3ccccc3c21,i,nt,nt,CFTR F508del fold 25 µM=1.2&1&1;CFTR F508del viability 25 µM=89&98&98
NC(N)=Nc1nc(CSCC/C(N)=N/S(N)(=O)=O)cs1,i,nt,nt,CFTR F508del fold 25 µM=1;CFTR F508del viability 25 µM=82
CC(C)n1ncc2cc(NS(=O)(=O)c3cc(F)ccc3F)cnc21,i,0.92,91,
Cc1nn(CCS(=O)(=O)N2CCOCC2)c(C)c1[N+](=O)[O-],i,1,91,
C#CCN(C1CCc2ccccc21)S(=O)(=O)c1cccc(Br)c1 (centres undefined),i,1.1,87,
C[C@]12CCC3c4ccc(O)cc4CCC3C1CCC2=O (some centres undefined),i,nt,nt,CFTR F508del fold 25 µM=0.91;CFTR F508del viability 25 µM=103
NC(=O)OCC(COC(N)=O)c1ccccc1,i,nt,nt,CFTR F508del fold 25 µM=0.93;CFTR F508del viability 25 µM=98
CNc1ccc(Br)cc1F,i,0.92,93,
Cc1noc(C)c1CNc1ccccc1-n1cncn1,i,0.96,92,
O=C1NCCCCC1Sc1nnnn1Cc1ccco1 (centres undefined),i,0.94,95,
CSc1cccc(NS(=O)(=O)c2ccc(Br)cc2Cl)c1,i,0.94,93,
CC(=O)Oc1cc(C(C)C)c(OCCN(C)C)cc1C,i,nt,nt,CFTR F508del fold 25 µM=1.1;CFTR F508del viability 25 µM=103
NC(=O)c1c(NC(=O)COc2ccc3c(C(F)(F)F)cc(=O)oc3c2)sc2c1CCC2,i,1.1,85,
O=C(CSc1nc(O)cc(=O)n1C1CCCC1)NC12CC3CC(CC(C3)C1)C2,i,0.96,85,
O=C(COCC(F)(F)F)Nc1nncs1,i,0.98,83,
CCCc1nc(C)c2c(=O)[nH]c(-c3cc(S(=O)(=O)N4CCN(CC)CC4)ccc3OCC)nn12,+!,nt,nt,CFTR F508del fold 25 µM=2.2*!;CFTR F508del viability 25 µM=60*!
FC(F)(F)c1cccc(N2CCN(Cn3nnc(-c4ccccc4)n3)CC2)c1,i,1.1,109,
O=C(OCc1nnsc1Cl)c1ccc(S(=O)(=O)C(F)F)cc1,i,1.3,92,
O=S(=O)(N1CCCCCC1)N1CCCC(c2cc3ccccc3[nH]2)C1 (centres undefined),i,0.99,94,
CCOC(=O)c1c(NC(=O)CN2C(=O)NC3(CCCCC3)C2=O)sc2c1CCC2,i,1.1,82,
CN(CCOc1ccc(Cl)cc1)CN1C(=O)C(=O)N(C)C1=O,i,1.3,94,
CC1CCCC(NC(=O)c2ccc(S(=O)(=O)N3CCCC3)o2)C1C (centres undefined),i,0.96,80,
CCCNc1nnc(SCc2nc(N)c3c4c(sc3n2)CCCCC4)s1,i,0.99,92,
# Continued:
SMILES,CFTR F508del,CFTR F508del fold 10 ug/mL,CFTR F508del viability 10 ug/mL,others
C[C@]12CC[C@@H]3c4ccc(O)cc4CC[C@H]3[C@@H]1CCC2=O,i,nt,nt,CFTR F508del fold 25 µM=0.95&1.1;CFTR F508del viability 25 µM=90&74
O=C1CN(/N=C/c2ccc([N+](=O)[O-])o2)C(=O)N1,i,nt,nt,CFTR F508del fold 25 µM=1;CFTR F508del viability 25 µM=84
CC1CN(CCN2C(=O)NC(C)(C)C2=O)CCO1 (centres undefined),i,0.99,102,
CN(C(=O)CCNC(=O)c1ccoc1)C1CCCCC1,i,0.75,77,
C=CCn1c(SCc2nc(CC(C)C)no2)nc2ccc(Cl)cc2c1=O,i,0.87,79,
C=C(NC(=O)C(=C)NC(=O)c1csc(C2=NC3c4csc(n4)C4NC(=O)c5csc(n5)C(C(C)(O)C(C)O)NC(=O)C5CSC(=N5)C(=CC)NC(=O)C(C(C)O)NC(=O)c5csc(n5)C3(CC2)NC(=O)C(C)NC(=O)C(=C)NC(=O)C(C)NC(=O)C(C(C)CC)NC2C=Cc3c(C(C)O)cc(nc3C2O)C(=O)OC4C)n1)C(N)=O (centres undefined),i,nt,nt,CFTR F508del fold 25 µM=0.64;CFTR F508del viability 25 µM=81
O=C(CCCCCCCCCCCCC1C=CCC1)Nc1ccc(S(=O)(=O)c2ccc(NC(=O)CCCCCCCCCCCCC3C=CCC3)cc2)cc1 (centres undefined),i,nt,nt,CFTR F508del fold 25 µM=1.1;CFTR F508del viability 25 µM=84
N[C@@H](Cc1cc(I)c(Oc2cc(I)c(O)c(I)c2)c(I)c1)C(=O)O,i,nt,nt,CFTR F508del fold 25 µM=1&1.1;CFTR F508del viability 25 µM=96&104
COc1ccc(OC)c(C2CCCN2S(=O)(=O)c2ccc(S(=O)(=O)C(F)F)cc2)c1 (centres undefined),i,0.95,82,
O=C1c2cc(Cl)c(Cl)cc2C(=O)N1CN(CC1CCCO1)CC1CCCO1 (centres undefined),i,1.1,98,
C#CCNC(=O)c1ccc2c(c1)S(=O)(=O)N=C1CCCCCN12,i,0.89,101,
COc1cc([N+](=O)[O-])c(OC)cc1Oc1ccc2c(c1)OCO2,i,0.96,80,
COc1ccc(CN(C)CN2C(=O)C(=O)c3cc4c(cc32)OCCO4)cc1OC,i,1.1,76,
O=S(=O)(NCC1CC1)c1ccc2c(c1)OCCO2,i,0.94,92,
COCCCNC(=O)c1[nH]c(C)c(C(C)=O)c1C,i,1.1,93,
O=C(Nc1ccc(N2CCCC2)nc1)NC1CCCC1,i,1.1,88,
Cn1c(SCc2ccc(Cl)c(Cl)c2)nnc1C1CCS(=O)(=O)C1 (centres undefined),i,0.99,97,
CCN(CC)CCNC(=O)c1[nH]c2c(c1C)C(=O)CC(C)(C)C2,i,1,100,
O=C(OC/C=C/c1ccccc1)C12CC3CC(CC(O)(C3)C1)C2,i,0.96,86,
N#CCSc1ncc(-c2ccc(F)cc2)o1,i,0.85,91,
CN1C(=O)C(=O)N(CN2CCN(S(=O)(=O)c3ccc(Br)cc3Cl)CC2)C1=O,i,1.1,95,
Cc1nc(C)c(CC(=O)NCC(F)(F)F)c(=O)[nH]1,i,1.1,94,
Cc1ccc(-c2c3c(nc4sc5c(c24)CCCC5)C(C)CCC3)cc1 (centres undefined),i,1.1,86,
CCOC(=O)N1CCN(Cc2cc(C(C)C)c(C)cc2O)CC1,i,0.97,98,
CC1(c2ccccc2)NC(=O)N(Cc2cc(=O)n3ccccc3n2)C1=O (centres undefined),i,1.1,91,
COCCOC(=O)c1c(C)nc2sc3c(c2c1-c1ccco1)CCC(C)C3 (centres undefined),i,0.85,100,
CN(Cn1nc(C2CC2)n(C)c1=S)C(c1ccccc1)c1ccccc1,i,0.98,93,
CCCc1nc(C(C)(C)O)c(C(=O)OCc2oc(=O)oc2C)n1Cc1ccc(-c2ccccc2-c2nn[nH]n2)cc1,i,nt,nt,CFTR F508del fold 25 µM=1.1&1.1;CFTR F508del viability 25 µM=89&91
CCOC(=O)C1=C(CSc2nnnn2-c2ccc(C)cc2C)NC(=O)NC1C (centres undefined),i,1,75,
CCOC(=O)CNC(=O)OCC(F)(F)F,i,0.94,88,
CN(C)C1(CNS(=O)(=O)c2ccccc2F)CCCC1,i,1,94,
c1ccc(-c2c3c(nc4sc5c(c24)CCCC5)-c2ccccc2OC3c2ccccc2)cc1 (centres undefined),i,0.94,94,
Cc1cc(NC(=O)CSCC(=O)NC2CCN(C(=O)c3ccoc3)CC2)no1,i,0.99,101,
Cc1ccc(-c2nc(CSc3nnnn3C)cs2)o1,i,1.1,109,
Cc1cc(CN2CCN(Cc3nc4cc([N+](=O)[O-])ccc4n3-c3ccc(F)cc3)CC2)on1,i,0.92,88,
Cc1ccc(-c2nc(CN3C(=O)NC(C)(c4ccc5c(c4)OCO5)C3=O)no2)cc1 (centres undefined),i,1.1,97,
Nc1ccc(S(=O)(=O)Nc2cnc3ccccc3n2)cc1,i,nt,nt,CFTR F508del fold 25 µM=1;CFTR F508del viability 25 µM=82
CN(C)CCN(Cc1cccs1)c1ccccn1,i,nt,nt,CFTR F508del fold 25 µM=1.1;CFTR F508del viability 25 µM=89
COc1ccc(O)c(C(=O)OCN2C(=O)c3ccccc3C2=O)c1,i,1,103,
O=C(Oc1cccc2cccnc12)c1ccccc1,i,nt,nt,CFTR F508del fold 25 µM=0.92;CFTR F508del viability 25 µM=81

# Structures shown so far that have a CF3 group, in the order listed:
SMILES,CFTR F508del,CFTR F508del fold 10 ug/mL,CFTR F508del viability 10 ug/mL,others
CN(CCOc1ccc(F)cc1)c1ccc2nnc(C(F)(F)F)n2n1,i,0.95,80,
FC(F)(F)c1ccc(NCCCNc2ccc3nnnn3n2)nc1,i,1.1,82,
NC(=O)c1c(NC(=O)COc2ccc3c(C(F)(F)F)cc(=O)oc3c2)sc2c1CCC2,i,1.1,85,
O=C(COCC(F)(F)F)Nc1nncs1,i,0.98,83,
FC(F)(F)c1cccc(N2CCN(Cn3nnc(-c4ccccc4)n3)CC2)c1,i,1.1,109,
Cc1nc(C)c(CC(=O)NCC(F)(F)F)c(=O)[nH]1,i,1.1,94,
CCOC(=O)CNC(=O)OCC(F)(F)F,i,0.94,88,

# Next part
SMILES,CFTR F508del,CFTR F508del fold 10 ug/mL,CFTR F508del viability 10 ug/mL,others
O=S(=O)(N1CCc2ccccc2C1)N1CCOC(c2ccc(F)cc2)C1 (centres undefined),i,0.98,105,
CC1(NC(=O)c2ccoc2)CCS(=O)(=O)C1 (centres undefined),i,1,76,
O=C1C(=O)N(C2CCCC2)C(=O)N1CN1CCN(S(=O)(=O)c2ccc3c(c2)CCCC3)CC1,i,0.97,102,
CCC(C)(CNC(=O)CNC(=O)C(C)(C)C)N1CCOCC1 (centres undefined),i,1.1,107,
Cc1cc(NCC(c2ccco2)N2CCCC2)n2ncnc2n1 (centres undefined),i,1.1,82,
Cc1cc(C(=O)NC2CCCC2)c(C)n1-c1nccs1,i,1.1,91,
CCCCN1CC2=C(C1=O)C(c1cc(OC)c(OC)c(OC)c1)NC(=O)N2 (centres undefined),i,1.1,114,

# Assay outcomes (PubChem)
